# Bioassay records deposited in PubChem BioAssay by National Center for Advancing Translational Sciences (NCATS).
# nsP2pro primary: blocks chikungunya virus nsP2 protease peptide cleavage; FRET peptide cleavage, nsP2pro, fluorescence 1 h; actives 1.1% (n = 31,000); AID 1964107; Potency, µM (titrated, usually from 24.9 µM), for the others: at the top dose activity change, negative = inhibition, usual class: inhibitors; Q8JUX6; active means well fitted inhibition curve with a large enough effect; inconclusive means small, poorly fitted or top-dose-only effect; inactive means no such curve, though single readings can be large or run the other way; also: nearly all actives have a fitted effect of over 60% in size; a reference inhibitor and vehicle were the controls
# The depositor's hits bear a star; i = inactive; ? = inconclusive; & = joins results of further samples; [ ] = dose if it differs, or a comment. % is scaled to controls: 0 for no effect and ±100 for the full control effect; potency is read from the fitted curve at half-maximal effect.
SMILES	nsP2pro primary
C/C=C(\C)C(=O)O[C@@H]1CC2[C@@H](CC=C3C[C@@H](O[C@H]4C[C@H](OC)[C@H](O[C@H]5C[C@H](OC)[C@H](O[C@H]6C[C@H](OC)[C@H](O[C@H]7C[C@@H](OC)[C@H](O[C@@H]8O[C@H](CO)[C@@H](O)[C@H](O)[C@H]8O)[C@@H](C)O7)[C@@H](C)O6)[C@@H](C)O5)[C@@H](C)O4)CC[C@@]32C)[C@@]2(O)CC[C@H](C(C)=O)[C@@]12C (stereo partly drawn)	-19%[5.1 µM]
Cc1noc(C)c1CC(=O)N(C)C1CCc2nnc(C)n2CC1 (stereo not drawn)	3%
CCOC(=O)c1ccc(CN(Cc2ccc(F)cc2)S(=O)(=O)c2cc(C(=O)Nc3cccc(C(F)(F)F)c3)ccc2F)cc1	-15%
COc1ccc(C2=Nn3c(nnc3-c3ccccc3O)SC2)cc1OC	3%
COc1cccc(C2N=C(Nc3nc4ccccc4o3)NC3=C2C(=O)CCC3)c1 (stereo not drawn)	-20%
Cc1c(C)c2c(c(C)c1OC(=O)c1cccnc1)CC[C@@](C)(CCC[C@H](C)CCC[C@H](C)CCCC(C)C)O2	-1%
CCOc1ccc(NC(=O)CN2CCN(S(=O)(=O)c3ccc(OC)cc3)CC2)cc1	-29%
CCN(c1ccccc1)S(=O)(=O)c1cc(Br)cc2c1N(C(=O)C1CC1)CC2	-20%
CCOC(=O)c1cccc(-n2cnc(/C=C3\NC(=O)N(CC(=O)OC(C)(C)C)C3=O)c2)c1	i
OC[C@H]1O[C@@H](OCc2ccccc2)[C@H](O[C@@H]2OC[C@@H](O)[C@H](O)[C@H]2O)[C@@H](O)[C@@H]1O	2%[10 µM]
c1ccc(-c2cc3c(cn2)NCCN(Cc2ccccn2)C3)cc1	i
CCO[C@@H]1O[C@H](C(COCc2ccccc2)OCc2ccccc2)[C@H](OCc2ccccc2)[C@H]1O (stereo partly drawn)	-5%
CCC(=O)NC(c1cccs1)c1cc(Cl)c2ccccc2c1O (stereo not drawn)	i
Cc1cccc(CN2C(=O)CN=C(c3ccccc3)c3cc(Cl)ccc32)c1	-13%
Cc1cc(O)c(-c2ccc([C@@H](C)CN(C)C)cc2)c2c1[nH]c(=O)c1sccc12	-6%

# Some of the entries above, set out differently.
COc1cccc(C2N=C(Nc3nc4ccccc4o3)NC3=C2C(=O)CCC3)c1 (stereo not drawn)
  nsP2pro primary: -20%

Cc1noc(C)c1CC(=O)N(C)C1CCc2nnc(C)n2CC1 (stereo not drawn)
  nsP2pro primary: 3%

CCOc1ccc(NC(=O)CN2CCN(S(=O)(=O)c3ccc(OC)cc3)CC2)cc1
  nsP2pro primary: -29%

CCC(=O)NC(c1cccs1)c1cc(Cl)c2ccccc2c1O (stereo not drawn)
  nsP2pro primary: i

# Later entries.
SMILES	nsP2pro primary
Cc1cnc(CC2CCN(C(=O)Cc3cccc(F)c3)CC2)n1CC1CC1	i
Cc1ccc(NC(=O)CCNS(=O)(=O)c2cccc3nonc23)cc1Cl	-11%
CNC(=O)c1c(I)c(C(=O)NCC(=O)Nc2c(I)c(C(=O)O)c(I)c(C(=O)NCCO)c2I)c(I)c(N(C)C(C)=O)c1I	-7%
O=C(N[C@H](C1CCNCC1)C1CC(O)C1)c1ccc2nccnc2c1 (stereo partly drawn)	-4%
Cc1ccc2nc(N3CCN(c4cccc(Cl)c4)CC3)c(-n3nc(C)cc3C)nc2c1	-14%
Cn1cc(Nc2ccc(Cl)cc2)c2nc(CN3CC[S+](=O)([O-])CC3)cn2c1=O	2%[39.2 µM]
CCOC(=O)c1ccc(C#Cc2ccc3c(c2)C(C)(C)CCS3)nc1	10%
COc1cccc(NC(=O)Cn2c(=O)n(CC(=O)NCCc3ccccc3)c(=O)c3sccc32)c1	-1%
COc1cc(NC(=O)CCc2nc3cccnc3n2Cc2cccs2)cc(OC)c1OC	-7%
CN(C)CCc1c[nH]c2ccc(CS(=O)(=O)N3CCCC3)cc12	-12%
Cc1ccc(-c2nc3cnccn3c2NCCC(=O)O)cc1	0%
Cc1ccc(C2(COC(=O)C(C)C)CO2)c(OC(=O)C(C)C)c1 (stereo not drawn)	-12%
CNC1=C(c2ccc(F)cc2)C(=O)N(Cc2ccccc2)C1	-9%
COc1cccc(-c2c(C)n(Cc3c(F)cccc3C(F)(F)F)c(=O)n(C[C@H](NCCCC(=O)O)c3ccccc3)c2=O)c1F	-13%
O=S(=O)(c1ccc(Cl)cc1)c1nnn2c1nc(NC1CCCC1)c1sccc12	-21%

SMILES	nsP2pro primary
COc1cc(OC)c(NC(=O)c2c3c(nn2C)-c2ccccc2SC3)cc1Cl	-7%
Cc1cccc(Cn2c(=O)n(CCC(=O)NCCc3ccc(Cl)cc3)c(=O)c3sccc32)c1	-11%
O=C(c1ccccc1)N1CCCN(c2nc3ncccc3o2)CC1	2%[39.2 µM]
NC(=O)NCCCC(NC(=O)Cc1ccccc1)C(=O)O (stereo not drawn)	-4%
CO/N=C(\C(=O)N[C@@H]1C(=O)N2C(C(=O)OCOC(=O)C(C)(C)C)=C(/C=C\c3scnc3C)CS[C@H]12)c1csc(N)n1	?
CC(=O)Nc1sc2c(c1C(=O)O)CCNC2	?
Cc1ccc(Nc2ncc(C(=O)Nc3ccc(F)cc3F)c3ccccc23)cc1Cl	-23%
CC(C)N1CCc2c(sc(NC(=O)C3CCCC3)c2-c2nc3ccccc3s2)C1	-1%
O=C(/C=C/c1ccc(C(F)(F)F)cc1)Nc1cccc([S+](=O)([O-])Nc2ccccc2F)c1	i
O=C(Cc1cccnc1)N1CCC2(CC1)CC(CCOc1ccc(F)cc1)CCO2 (stereo not drawn)	4%
COc1ccc(-c2cn3c(n2)sc2cc(C(=O)NCc4cccc(F)c4)ccc23)cc1	-6%
Cc1cc(F)ccc1C(=O)N1CCn2nc(Cc3ccccc3)cc2C1	i
O=C(O)c1ccc2nc(-c3cc(Cl)cc(Cl)c3)oc2c1	-12%
CCOc1cc(/C=C(\C#N)C(=O)NCC2CCCO2)ccc1O (stereo not drawn)	-14%
C=C1CC[C@@H]2[C@](C)(CO[C@@H]3O[C@H](CO)[C@@H](O)[C@H](O)[C@H]3O)CCC[C@@]2(C)[C@@H]1CCC1=CCOC1=O	5%[10 µM]

SMILES	nsP2pro primary
O=C(Cn1ccnc1)N1CCC(N2C(=O)C3(CCCC3)C2c2ccccc2)CC1 (stereo not drawn)	i
CC(C(=O)Nc1nccs1)N1CCN(c2nccnc2C#N)CC1 (stereo not drawn)	?
NC(=O)CN1CC2(CCC1=O)CCN(C[C@@H](O)CO)CC2	-3%
FC(F)(F)c1cccc(N2CCN(C(=S)Nc3cc(C(F)(F)F)ccn3)CC2)c1	-6%
COc1ccc(C=O)cc1COc1ccc(NC(C)=O)cc1	i
C[C@@H]1CC[C@]2(C(=O)O[C@@H]3O[C@H](CO)[C@@H](O)[C@H](O)[C@H]3O)CC[C@]3(C)C(=CCC4[C@@]5(C)C[C@@H](O)[C@H](O)[C@](C)(C(=O)O)C5CC[C@]43C)[C@@H]2[C@]1(C)O (stereo partly drawn)	-1%[10 µM]
O=C(N[C@H]1CO[C@H]2[C@@H]1OC[C@@H]2Nc1nccc(-c2cccs2)n1)c1ccccc1	10%[39.2 µM]
CN1C(C(=O)Nc2ccc(F)cc2F)=CC(c2ccco2)=NS1(=O)=O	-26%
CCNC(=O)c1cnc2c(-c3ccccc3)c(C)nn2c1C	-15%
COc1ccccc1-c1csc(N2CCC(C(N)=O)CC2)n1	0%
CCOC(=O)C1CCN(C(=O)C2(NC(=O)Nc3ccc(F)cc3F)CCCCC2)CC1	-5%
O=C(NCc1ccc(OC(F)(F)F)cc1)c1cc(CN2CCOCC2)on1	?
COc1cccc(-c2nc(SC)nc3sc(C(=O)NC(C)(C)C)c(N)c23)c1	?
CCN(c1cc(C#CCN2CCOCC2)cc(C(=O)NCc2c(C)cc(C)[nH]c2=O)c1C)C1CCC(N(C)CCOC)CC1 (stereo not drawn)	-9%&-3%
Cc1ccccc1-c1ccc2n(c1=O)C[C@H]1C[C@@H]2CN(C(=O)NC2CCCCC2)C1	-19%[39.2 µM]

SMILES	nsP2pro primary
CC(=O)N1CCc2c(sc(NC(=O)CSc3ccc(C)cc3)c2-c2nc3ccccc3s2)C1	-13%
Cc1cc2oc(C(=O)Nc3ccc(S(=O)(=O)N4CCC(C)CC4)cc3)cc(=O)c2cc1C	-15%
Cn1c(=NC(=O)c2ccc(S(=O)(=O)N3CCCC3)cc2)sc2cc(F)ccc21	-17%
CCCCN(C(=O)CCn1c(=O)oc2ccccc21)c1ccccc1	-8%
CCc1ccccc1CN1CCCC2(Cc3ccccc3CNC2=O)C1 (stereo not drawn)	-7%
Cc1[nH]c2ccccc2c1P(=S)(c1ccccc1)c1ccccc1	-12%
CCCN1CCN(CCCNC(=O)C(CC)n2nc(C)n3c(cc4occc43)c2=O)CC1 (stereo not drawn)	-14%
CCC(C)NC(=O)c1ccc2c(c1)nc1n2CCCCC1 (stereo not drawn)	-5%
Cc1cc(C)cc(NC(=O)N2CCC(CCc3nc(C4CCOCC4)no3)CC2)c1	-10%
CCS(=O)(=O)N(Cc1cccnc1)c1cccc(-c2ccc(C#N)cc2)c1	-10%
C[C@H](/C=C/[C@@]1(O)[C@H](C)CC(=O)CC1(C)C)O[C@@H]1O[C@H](CO[C@@H]2OC[C@@H](O)[C@H](O)[C@H]2O)[C@@H](O)[C@H](O)[C@H]1O	-4%[10 µM]
COCCN1C(=O)N(C)C(=O)C12CCN(CCCOc1ccc(F)cc1)C2 (stereo not drawn)	i
COc1ccc(CNC(=O)C2CCN(S(=O)(=O)c3cccc4nonc34)CC2)cc1OC	?
Cc1ccc(C(=O)CSc2nc(-c3ccccc3)nc3c2CCCC3)cc1	-11%
N=c1c2c(ccn1CCc1ccccc1)Oc1ccc3ccccc3c1C2c1ccccc1 (stereo not drawn)	-10%

SMILES	nsP2pro primary
OCc1nc(C2CCNC2)no1 (stereo not drawn)	2%
CSCC(=O)N1C[C@@H](NC(=O)NC(C)C)C[C@H]1C(=O)N[C@H](Cc1c[nH]c2ccccc12)C(N)=O	2%
Cc1ccc(C)c(N2CCN(c3ccc(NC(=O)c4cccs4)cc3C(=O)O)CC2)c1	5.6µM*
C/C=C(\C)C(=O)OCC1OC(OCC2OC(OC3(CO)OC(CO)C(O)C3O)C(O)C(O)C2O)C(O)C(O)C1O (stereo not drawn)	-14%[10 µM]
COc1ccc(-c2nnc3n2N=C(c2ccccc2OC)CS3)c(OC)c1	0%
O=C(NC1CCCc2c1cnn2CCO)c1ccccn1 (stereo not drawn)	i
N#Cc1cccc(NC(=O)C2CCN(c3cnccn3)CC2)c1	-7%
O=C(O)c1cccc(-c2noc(-c3ccccc3Cl)n2)c1	3%
CC(C)(C)OC(=O)Nc1ccc(-c2cc(C(=O)NCCCCCCC(=O)NO)no2)cc1	2%&93%
Cc1ccc(CN2CCNCC2)cc1NC(=O)CNc1ccc(F)c(F)c1	-13%
COc1cccc(NC(=S)N2CCN(c3cccc(Cl)c3Cl)CC2)n1	-13%
COc1ccc(CN2CCN(CCCSc3cc(C(C)(C)C)c(O)c(C(C)(C)C)c3)CC2)c(OC)c1OC	11%[5.1 µM]
COC(=O)/C=C/c1ccc(O[C@@H]2O[C@H](CO)[C@@H](O)[C@H](O)[C@H]2O)cc1	2%
C=CCOc1ccc(-c2nnc(CCC(=O)NCCOc3ccccc3)c(=O)[nH]2)cc1	-1%
COCCCC/C(=N\OCCN)c1ccc(C(F)(F)F)cc1	8%

SMILES	nsP2pro primary
C[C@H]1[C@@H]2[C@@H](O)C([C@H](C)C(=O)NC3CCCCC3)CC[C@@]2(C)CC[C@@H]1NC(=O)C1CCCCC1 (stereo partly drawn)	i
C[C@@H]1CN(Cc2ccc(F)cc2)CCN1C(=O)COc1ccc(Cl)cc1NC(N)=O	-4%
CC(=O)N1CCC(N2C[C@@H]3C[C@H](C2)c2ccc(-c4ccccc4CN(C)C)c(=O)n2C3)CC1	?
C=C1C(=O)O[C@@H]2C(OC(=O)/C(C)=C\C)/C(C)=C\C(=O)/C=C(\C)C[C@H](O)[C@@H]12 (stereo partly drawn)	?
O=C(Nc1ccc(S(=O)(=O)Nc2ncccn2)cc1)c1cccc(Cl)c1	-29%
CS(=O)(=O)N(Cc1cccnc1)C1CN(C(=O)CCc2c[nH]c3ccccc23)C1	-11%
CS(=O)(=O)N(Cc1ccccc1)c1ccc(C(=O)Nc2cccc(Cl)c2)cc1	23%
O=C1CC(=O)Nc2cc(S(=O)(=O)Nc3ccc(F)cc3Cl)ccc2N1	-12%
CCOc1ccccc1NC(=O)C(C)Sc1cc(-c2ccccc2)nc(C)n1 (stereo not drawn)	-24%
O=C(NCCc1nc2ccccc2n1CCOc1cccc([N+](=O)[O-])c1)C1CCCCC1	0%
CN(C(=O)CSc1cn(CC(=O)N2CCCC2)c2ccccc12)c1ccccc1	-36%
O=C(NCc1ccc(F)cc1)[C@H]1CN2CCC1C[C@@H]2Cn1cc(CSc2ccccc2)nn1 (stereo partly drawn)	1%
O=C(NC1CCCc2c1cnn2-c1ccc(F)cc1F)c1ccc(C2(C(F)(F)F)N=N2)cc1 (stereo not drawn)	-4%

# The list is partial; count on the stated rates, not on these rows.
